# High-throughput results (PubChem)
# Ecoli growth: blocks Escherichia coli growth. OD600, 23 h; hits give low values. OD600 absorbance (test concentration not listed). hit rate 0.21% among 330,000. AID 1053175;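 active means OD600 absorbance below the run mean of sample wells minus 3.6 SD, in any replicate, cut at about 0.56 in these data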;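 further: stock transfer was 300 nL into about 60 µL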
# Beta2AR agonist: human beta-2 adrenergic receptor agonism by FAP. Am2.2-beta2AR cells, FAP receptor internalization, flow cytometry; reference of the scale not given here. response, % (concentration not given with the values). hit rate 0.43% among 340,000. AID 504454;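 active means response above a set limit, near 3 SD of response in nonfluorescent compounds, cut at about 42% in these data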;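 further: stock transfer was 100 nL into about 11 µL; a reference agonist was the positive control; negative values mostly stem from fluorescent compounds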
# Target sequence (P07550 whole entry, looked up): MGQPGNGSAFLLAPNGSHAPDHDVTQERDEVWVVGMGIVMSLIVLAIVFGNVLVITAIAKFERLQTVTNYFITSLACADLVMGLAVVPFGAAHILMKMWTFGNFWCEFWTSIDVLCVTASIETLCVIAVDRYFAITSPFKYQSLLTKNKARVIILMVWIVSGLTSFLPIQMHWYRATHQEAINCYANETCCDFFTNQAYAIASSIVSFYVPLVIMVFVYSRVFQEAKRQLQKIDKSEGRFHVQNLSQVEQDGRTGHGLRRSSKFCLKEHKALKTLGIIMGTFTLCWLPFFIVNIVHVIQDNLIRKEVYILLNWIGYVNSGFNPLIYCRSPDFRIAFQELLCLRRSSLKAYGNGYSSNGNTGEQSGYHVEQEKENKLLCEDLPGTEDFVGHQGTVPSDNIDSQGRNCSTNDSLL
# FGF22 binding: FGF22 (human) thermal shift binding. Q9HCT0. recombinant FGF22 thermal shift, SYPRO orange fluorescence; percent of sucrose octasulfate shift, DMSO zero. calls only at 9.99 µM. hit rate 1.5% among 340,000;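 active means melting point raised past a set limit in the mean and every replicate; three in four hits are not shown here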
# LANA-H2B inh: blocks KSHV LANA binding to histone H2A/H2B; hit rate 0.6% among 320,000; Q9QR71; cell-free LANA-H2A/H2B peptide, fluorescence polarization; inhibition, % (no concentration beside the values); in the data active means inhibition mostly above about 10%, no sharp cut-off; inactive means mostly below about 6.7%;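 further: stock transfer was 7.5 nL into about 10 µL; 0% = median of vehicle wells and 100% = median of positive control wells; one replicate is shown; the record names a cut of 25% in any replicate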
# HNF4A DNA FP: change in binding of human HNF4 alpha to DNA; hit rate 0.3% among 360,000; activity change, % at 10 µM; P41235; HNF4a-FITC DNA binding, fluorescence polarization, 1 h; in the data active means activity change above about 30%, passing the limit was not always enough;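 further: controls were the assay level and a saturating level of protein; the project sought stronger binding though the title names inhibitors; some compounds called inactive have numbers as strong as hits; positive values seem to mean higher polarization but the record does not say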
# ALR H2O2 inh: human ALR oxidase inhibition via reduced H2O2 | P55789 | purified ALR, DTT oxidation, H2O2 HRP-luminol luminescence | inhibition, % (concentration not given with the values) | hit rate 3.8% among 290,000;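 active means mean and each replicate at 75% or more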;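 further: stock transfer was 7.5 nL into about 7.5 µL; 0% = neutral wells and 100% = wells with inactivated enzyme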
# Target sequence (P55789 whole entry, looked up): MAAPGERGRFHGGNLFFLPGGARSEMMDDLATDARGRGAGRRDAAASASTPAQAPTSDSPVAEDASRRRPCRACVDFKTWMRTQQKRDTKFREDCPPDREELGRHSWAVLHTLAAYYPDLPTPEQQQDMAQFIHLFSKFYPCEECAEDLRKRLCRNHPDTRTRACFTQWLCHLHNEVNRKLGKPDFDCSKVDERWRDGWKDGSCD
# UCH37 DUB inh: inhibitors of human deubiquitinating enzyme UCH37 | Q9Y5K5 | hit rate 0.33% among 330,000 | purified proteasome/UCH37, Ub-AMC cleavage fluorescence | inhibition, % (test concentration not listed);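 active means mean of two replicates above 20%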;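 further: 0% = compound-free wells with enzyme and 100% = wells lacking proteasome; stock transfer was 100 nL into about 20 µL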
# Target sequence (Q9Y5K5 whole entry, looked up): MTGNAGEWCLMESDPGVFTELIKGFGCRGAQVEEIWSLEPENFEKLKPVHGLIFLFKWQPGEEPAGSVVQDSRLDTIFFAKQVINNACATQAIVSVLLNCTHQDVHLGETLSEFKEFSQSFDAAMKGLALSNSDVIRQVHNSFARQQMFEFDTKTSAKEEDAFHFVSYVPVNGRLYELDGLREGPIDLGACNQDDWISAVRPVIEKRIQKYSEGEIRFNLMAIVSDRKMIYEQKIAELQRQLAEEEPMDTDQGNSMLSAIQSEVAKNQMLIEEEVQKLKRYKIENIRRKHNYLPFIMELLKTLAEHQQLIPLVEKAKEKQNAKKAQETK
#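 Material: Human UCH37 enzyme supplied as purified proteasome complex | Schedule: 30 min preincubation with enzyme, 25 min cleavage at room temperature | Detection: AMC fluorescence 355/460 nm | Measure: % inhibition of Ub-AMC cleavage fluorescence | Controls: Wells without proteasome as full block, compound-free enzyme plus substrate as uninhibited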
# The depositor's hits bear a star; i = inactive; / = not tested or not shown; & = joins results of further samples. This is a subset; rates above refer to the full screens.
# Results follow in this order: Ecoli growth	Beta2AR agonist	FGF22 binding	LANA-H2B inh	HNF4A DNA FP	ALR H2O2 inh	UCH37 DUB inh
- COc1ccc(CNC(=O)C2CCCN2S(=O)(=O)c2ccc(C)cc2)cc1 (centres undefined)
→ 0.71	1	/	4.9	-1.6	5	1.8
- CCC(c1nnnn1Cc1ccc(OC)cc1)N(CCCO)Cc1cc2cc3c(cc2[nH]c1=O)OCO3 (centres undefined)
→ 0.72	-5	/	2.5	-5.0	-34	-56
- CCn1nnnc1SCC(=O)Nc1cccc(C)n1
→ 0.74	-4	/	-1.7	2.4	-4	2.7
- CS(=O)(=O)c1ccc(Cl)c(NC(=O)COC(=O)CCN=C2NS(=O)(=O)c3ccccc32)c1
→ 0.65	-5	i	1.6	-0.7	0	1.0
- CC(C)CCOc1cccc(OCC(=O)N(C)C2CCS(=O)(=O)C2)c1 (centres undefined)
→ 0.61	-26	/	3.7	2.7	-2	0.7
- O=C(NCc1ccco1)C(c1ccc(F)cc1)N(C(=O)Cc1cccs1)c1cccnc1 (centres undefined)
→ 0.72	2	i	-8.1	-0.1	-1	3.2
- Cc1ccccc1Nc1nnc(SCC(=O)Nc2ncc(C(F)(F)F)cc2Cl)s1
→ 0.66	4	/	7.2	-4.7	-2	1.8
- O=C(Cn1c(CC(=O)N2CCOCC2)nc2ccccc21)Nc1ccc2c(c1)OC(F)(F)O2
→ 0.7	-12	/	0.3	1.2	-3	1.4
- CCc1ccccc1NC(=O)CN(C)C(=O)Cn1ncc(Cl)c(Cl)c1=O
→ 0.7	7	i	9.2	-0.3	-28	2.1
- COc1ccc(NC(=O)C2CCCN(S(=O)(=O)c3ccc4[nH]c(=O)ccc4c3)C2)cc1 (centres undefined)
→ 0.68	4	i	-3.2	-1.0	-14	-5.6
- O=C(/C=C/c1ccccc1Cl)NCc1ccco1
→ 0.71	2	/	1.3	7.5	9	6.4
- COC(=O)Cn1nnc(N2CCOCC2)n1
→ 0.66	2	i	-2.1	-0.9	-1	2.2
- Cc1cccc(C)c1N1C(=O)CC(N2CCN(S(=O)(=O)c3ccccc3F)CC2)C1=O (centres undefined)
→ 0.69	-1	i	-3.0	3.0	-1	2.8
- O=C(O)c1ccccc1NN=Cc1ccccc1
→ 0.68	-7	i	/	-1.1	/	17
- O=C(CCN1CCN(C/C=C/c2ccccc2)CC1)Nc1ccccc1Cl
→ 0.64	-6	i	2.3	0.6	-9	0.4
- Nc1nc(-c2ccc(Br)cc2)c(S(=O)(=O)c2ccccc2)s1
→ 0.68	-5	/	-2.4	-1.2	-4	1.6
- Cc1ccc(NC(=O)CN2CCCC2c2cccn2C)c(Br)c1 (centres undefined)
→ 0.65	5	i	-8.5	-0.3	8	-0.2
- COc1ccc2[nH]cc(C(=O)N3CCCCC3)c(=O)c2c1
→ 0.73	3	/	-5.2	1.6	/	-31
- NC(=O)CN1C(=O)C2CCCCN2C(=O)c2ccccc21 (centres undefined)
→ 0.72	2	/	-0.1	3.2	-2	3.7
- CN(C)S(=O)(=O)N(CC(=O)N1CCN(c2ccccc2F)CC1)c1ccccc1
→ 0.7	6	i	-6.4	-3.5	-21	0.4
- Cc1ccc(-c2noc(COc3ccc4c(c3)OCO4)n2)cc1
→ 0.76	3	/	2.8	-3.5	-3	-2.4
- CCOc1ccccc1CNC(=O)CCCC(=O)n1nc(C)c2ccccc21
→ 0.66	1	i	0.8	-0.7	-4	2.3
- O=C1CCCC(O)=C1N=Nc1ccc2c(c1)OCO2
→ 0.71	-8	i	2.2	21	-4	20*
- CCOc1ccc(CCNC(=O)c2ccc(CNS(=O)(=O)c3ccccc3)cc2)cc1OCC
→ 0.68	8	/	3.4	1.2	3	-1.7
- COc1cc(C(=O)NCC(c2cccs2)N2CCOCC2)cc(OC)c1OC (centres undefined)
→ 0.68	-1	i	3.8	3.0	-12	2.9
- COc1ccc2c(c1)CC[C@@H]1[C@@H]2CC[C@]2(C)C(=O)CC[C@@H]12
→ /	-10	i	-33&2.2	-1.7	2	2.8
- CCn1c(C)nnc1SCC(=O)NC1CCCC1
→ 0.72	21	i	-0.4	2.0	2	4.0
- Cc1sc2ncnc(SCC(=O)c3ccc4c(c3)OCCO4)c2c1-c1ccccc1
→ 0.73	0	/	-1.8	3.5	-19	0.1
- COc1cc2c(cc1OC)CN(CC(=O)Nc1ccc(C)c(S(=O)(=O)N3CCOCC3)c1)CC2
→ 0.68	11	i	0.0	-4.0	-1	-1.3
- CC(C)OC(=O)CSc1nc(N2CCOCC2)c2c(c1C#N)CC(C)(C)OC2
→ 0.63	0	i	-2.2	2.4	-17	2.7

# Full records from above.
# Entry for O=C(NCc1ccco1)C(c1ccc(F)cc1)N(C(=O)Cc1cccs1)c1cccnc1 (centres undefined) → Ecoli growth: 0.72; Beta2AR agonist: 2; FGF22 binding: i; LANA-H2B inh: -8.1; HNF4A DNA FP: -0.1; ALR H2O2 inh: -1; UCH37 DUB inh: 3.2
# Entry for CN(C)S(=O)(=O)N(CC(=O)N1CCN(c2ccccc2F)CC1)c1ccccc1 → Ecoli growth: 0.7; Beta2AR agonist: 6; FGF22 binding: i; LANA-H2B inh: -6.4; HNF4A DNA FP: -3.5; ALR H2O2 inh: -21; UCH37 DUB inh: 0.4

# Following part.
# Results follow in this order: Ecoli growth	Beta2AR agonist	FGF22 binding	LANA-H2B inh	HNF4A DNA FP	ALR H2O2 inh	UCH37 DUB inh
- Cc1ccc(CNC(=O)C2CC(c3ccc([N+](=O)[O-])cc3)=NO2)cc1 (centres undefined)
→ 0.67	-6	i	4.5	3.2	-3	1.5
- O=C(N=Nc1c(O)n(Cc2ccccc2)c2ccccc12)c1ccncc1
→ 0.69	-10	i	0.3	3.2	-3	9.6
- Fc1ccc(-c2nc3nc4ccccc4nc3n2Cc2ccco2)cc1
→ 0.72	-5	/	3.7	-1.7	19	-17
- COc1ccccc1CNC(=O)C1CCCN(S(C)(=O)=O)C1 (centres undefined)
→ 0.65	7	i	-0.1	6.7	0	1.8
- CCOC(=O)c1sc(NC(=O)CSc2nc(O)c(Cc3ccccc3)c(=O)[nH]2)nc1C
→ 0.68	-4	i	-2.1	3.7	99*	2.6
- COc1ccc(OC)c(-n2c(O)cnc2Nc2nc(C)cc(C)n2)c1
→ 0.73	10	/	0.6	0.7	-10	3.4
- O=C(CC1S/C(=N/N=C/C=C/c2ccccc2)NC1=O)Nc1ccc(Cl)c(Cl)c1 (centres undefined)
→ /	1	i	-1.1	4.0	3	/
- CN1C(=O)c2ccc(NC(=O)C3CCCCC3)cc2C1=O
→ 0.68	3	/	4.0	0.0	3	-255
- CCCc1nc(SCC(=O)NNC(=O)c2ccc(OC)cc2)c2ccccc2n1
→ 0.73	-14	/	-0.6	1.5	/	3.8
- O=C(NCc1ccc2c(c1)OCO2)C(c1ccco1)N(C(=O)c1csnn1)c1ccccc1 (centres undefined)
→ 0.69	0	/	2.1	0.8	3	3.4
- CC[C@@H](C)[C@@H](C(=O)N1CCN(C(=O)OC(C)(C)C)CC1)n1cc(CCCCNC(=O)OC(C)(C)C)nn1
→ /	7	i	-3.3	4.7	-6	2.2
- Cc1ccc(CCNC(=O)c2nn(C)c3c2CS(=O)(=O)c2ccccc2-3)cc1
→ 0.63	3	i	2.2	0.1	-4	3.1
- CCOc1cc(C(=O)CSc2nnc(CNc3ccc(Cl)cc3)o2)ccc1NC(=O)CC
→ 0.64	-15	i	-3.4	1.0	-2	4.5
- CCCCNC(=S)NNC(=O)CCn1nc(C)c(Br)c1C
→ 0.64	2	/	-3.5	4.2	-5	1.3
- CCOC(=O)C1=C(SCC)c2cc3c(n2C1=O)CCCC3
→ 0.73	-15	/	2.2	1.8	-3	7.4
- COc1ccc(-c2nc(=S)c3c(n2CCN2CCOCC2)CC(C)(C)OC3)cc1
→ 0.69	-4	/	-1.8	-0.6	/	12
- O=S(=O)(c1cccs1)N1CN(Cc2ccc(Cl)cc2)c2nc3ccccc3nc21
→ 0.71	-6	/	-2.3	-1.8	-24	0.2
- CC1Cc2ccccc2N1S(=O)(=O)c1cccc(C(=O)OCC(=O)N2CCOCC2)c1 (centres undefined)
→ 0.68	-3	i	1.3	3.5	2	5.3
- CC(C)(C)Cc1nc2ccccc2n1CCc1ccccc1
→ 0.67	-29	/	-1.3	-1.9	/	1.7
- Cc1[nH]c2ccccc2c1/C=N/NC(=O)Nc1ccccc1
→ /	-1	i	-2.9	3.8	11	/
- COc1cc2ccccc2cc1C(=O)OCC(=O)N(CC(C)C)c1c(N)n(Cc2ccccc2)c(=O)[nH]c1=O
→ 0.66	-3	i	-1.7	-1.2	-7	-128
- CN(C)Cc1cc(C(C)(C)C)cc(N2CCOCC2)c1O
→ 0.71	-7	/	/	3.0	/	1.0
- CC(=O)Cc1nsc(NC(=O)c2cc(-c3ccc(Cl)c(Cl)c3)oc2C)n1
→ 0.67	0	/	-1.5	-2.4	-17	3.5
- Cc1ccc(S(=O)(=O)CC(=O)c2ccccc2[N+](=O)[O-])cc1
→ 0.69	-5	i	0.7	-1.8	/	6.3
- CCCCn1c(SCc2nc3ccccc3s2)nc2ccccc2c1=O
→ 0.7	-14	/	1.1	-0.6	-24	2.3
- O=C(NCc1ccco1)c1ccc2[nH]c(=O)c(=O)[nH]c2c1
→ 0.72	0	i	-4.4	-5.4	3	-40
- COc1ccc(C2N(c3ccc4c(c3)OCCO4)C(=O)C2(F)F)cc1OC (centres undefined)
→ 0.68	18	i	2.6	4.2	-2	4.1
- CCOc1c(N2CCOCC2)c(=O)c1=O
→ 0.71	4	i	1.0	-1.1	-2	1.6
- CCNC(=O)C/C(C)=N/NC(=O)C1CCCCC1
→ /	-4	/	3.7	-1.1	/	/
- COc1ccc(OC)c(NC(=O)C2=C(C)Nc3ncnn3C2c2cccs2)c1 (centres undefined)
→ 0.7	-8	/	-6.1	-5.0	-9	-4.3

# (continued)
# Results follow in this order: Ecoli growth	Beta2AR agonist	FGF22 binding	LANA-H2B inh	HNF4A DNA FP	ALR H2O2 inh	UCH37 DUB inh
- COc1ccnc(-n2cccc2C=O)c1C#N
→ 0.67	-2	/	-6.7	0.2	-4	-0.2
- Cc1noc(C)c1S(=O)(=O)N(CC(=O)N1CCCC1)c1ccc(C(C)C)cc1
→ 0.75	-6	i	0.6	-0.8	-45	3.3
- CCC(=O)c1ccc2c(c1)OCCO2
→ 0.63	3	i	-0.3	3.0	-6	0.7
- Cc1ccc(NC(=O)CN(C)C(=O)c2ccc(Br)o2)cc1
→ 0.68	6	i	-0.7	1.1	1	0.2
- Cc1ccc(C(=O)NNC(=O)c2ccc3ncccc3c2)cc1
→ 0.68	-2	i	/	-1.3	/	4.6
- CC1CCN(N=Nc2nc3c([nH]2)c(=O)n(C)c(=O)n3C)CC1
→ 0.66	-6	i	/	5.8	/	17
- CCOc1ccc(CCN2C(=S)N([C@@H](CC(C)C)CN3CCCC3CN3C(=S)NC[C@@H]3CC(C)C)C[C@@H]2Cc2ccccc2)cc1 (some centres undefined)
→ /	8	i	/	-1.0	/	/
- CSCCC(NC(=O)c1ccc([N+](=O)[O-])cc1Cl)C(=O)OCC(=O)NCC(F)(F)F (centres undefined)
→ 0.64	-4	i	-1.3	-0.2	-5	0.2
- COC(=O)COc1ccc(S(=O)(=O)NCc2ccco2)cc1Cl
→ 0.7	11	/	0.7	-0.2	0	0.4
- Cc1ccc(-n2nnnc2CNC(=O)C2CC(=O)N(c3ccc(F)cc3)C2)cc1C (centres undefined)
→ /	-5	i	1.8	-1.2	-3	/
- O=C(c1cc2c(s1)CCCC2)n1cccn1
→ /	5	i	-0.8	-5.6	12	/
- CCN(CC)C(=O)c1ccc(-c2cccs2)s1
→ 0.62	-10	i	1.5	-5.8	-4	-22
- COc1cc(/C=N/NC2=NC(C)(C)Cc3ccccc32)cc(OC)c1OC
→ /	2	i	2.7	0.0	-31	/

# Gathered by group: the compounds so far with a cyano group.
# Results follow in this order: Ecoli growth	Beta2AR agonist	FGF22 binding	LANA-H2B inh	HNF4A DNA FP	ALR H2O2 inh	UCH37 DUB inh
- CC(C)OC(=O)CSc1nc(N2CCOCC2)c2c(c1C#N)CC(C)(C)OC2
→ 0.63	0	i	-2.2	2.4	-17	2.7
- COc1ccnc(-n2cccc2C=O)c1C#N
→ 0.67	-2	/	-6.7	0.2	-4	-0.2
